High-throughput results (PubChem BioAssay)
RN4220 kill: S. aureus RN4220 growth inhibition; AID 1259311; OD600, 16 h; inhibition, % (no concentration beside the values); 330,000 tested, 0.33% active;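 active means z-score of -3 or lower and OD600 up to 0.18 on both plates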;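 further: plate controls were untreated cells for no effect and reference antibiotic for full effect; stock transfer was 100 nL into about 80 µL; one replicate is shown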
Mtb hypoxia rep: Mtb hypoxia fluorescent reporter inhibition. fluorescence inhibition, % (test concentration not listed). AID 1159583. 300,000 tested, 0.1% active. M. tuberculosis hypoxia-regulated fluorescent reporter, fluorescence;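 active means 35 to 45% if threefold the growth effect, above 45% if 1.5-fold the growth effect; inactive means the rest, general growth blockers included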;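 further: wells of about 50 µL received 100 nL stock; 0% = vehicle wells and 100% = reference inhibitor wells; whole bacteria with a GFP reporter of the hypoxia response; strong numbers were not always called active; many hits fall short of the cut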
Bead autofluor: compound fluorescence in toxin protease inhibitor counterscreen. compound autofluorescence counterscreen, microsphere flow cytometry; active compounds read high. 360,000 tested, 3.1% active. AID 624483. fluorescence intensity (concentration not given with the values);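 active means at least 3 SD above the mean of all compounds, about 16000 in these data; inconclusive means too few beads counted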;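 further: 100 nL of 1 mM stock went into each well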
PrP UTR inh: suppresses PrP 5' UTR mRNA reporter expression; cell-based PrP 5' UTR mRNA reporter, plate reader; inhibition, % (concentration not given with the values); 340,000 tested, 0.35% active; AID 488862;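 active means every replicate at 50% or more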;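 further: 0 = median of the neutral control wells; tested in H4 reporter cells; numbers are from one replicate; inactives centre near -14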
Sa ugtP lethal: kills S. aureus RN4220 lacking UgtP; S. aureus RN4220 ugtP deletion, OD600 growth, 16 h; some inactives read as strong as hits; growth inhibition, % (test concentration not listed); 330,000 tested, 0.54% active;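 active means z-score under -3 and OD600 up to 0.15 on both plates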;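 further: plate controls were untreated wells for no effect and antibiotic for full effect; wells of about 80 µL received 100 nL stock; the first replicate is given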
BJeLR lethal: kills HRASV12-expressing BJeLR cells; 300,000 tested, 0.17% active; AID 1554; inhibition, % (no concentration beside the values); BJeLR (HRASV12) viability, CellTiter-Glo ATP luminescence, 48 h; reference of the scale not given here;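 active means replicate mean above 50%; inconclusive means above 50% but judged a plate artefact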;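 further: 50 nL library stock added to about 25 µL; numbers are from one replicate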
Mtb hypoxia rep growth: second read-out of Mtb hypoxia rep, no call of its own (marks repeat the call); growth inhibition, %; measured here: M. tuberculosis growth (absorbance);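 0% = vehicle and 100% = reference antibiotic; read after six days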
* marks the source's active call; other numbers are inactive results; ? = inconclusive; nt = not tested or not shown.

SMILES | RN4220 kill | Mtb hypoxia rep | Mtb hypoxia rep growth | Bead autofluor | PrP UTR inh | Sa ugtP lethal | BJeLR lethal
COc1ccc(OC)c(C(=O)N2CCC(CCC(=O)NC3CC3)CC2)c1 | 4.4 | 12 | 1 | 6189 | -22 | 6 | -4
COC(=O)C1=C(C)OC(N)=C(C#N)C1c1cc(OC)ccc1OC (stereo not drawn) | 7.7 | 9 | 0 | 6982 | -18 | 3 | 2
CCOCCCNC(=S)N1C2CCC1CC(NC(=O)Nc1ccc(C(=O)OCC)cc1)C2 (stereo not drawn) | 6.3 | -7 | -1 | 4567 | -8 | 3 | 1
CC1CCC(C(C)C)C(OCC(O)CN2CCOCC2)C1 (stereo not drawn) | 6.6 | 6 | -4 | 5978 | -32 | 9 | 1
Cc1ccc(NC(=O)C2=C(c3ccccc3)S(=O)(=O)CCS2(=O)=O)cc1 | 66 | 14 | 9 | 2668 | -2 | 100* | 29
Cc1c(NC(=O)C2(C)CCCCC2)c(=O)n(-c2ccccc2)n1C | 2.0 | -2 | 9 | 11026 | -43 | 0 | -8
COc1cc2c(cc1OC)[C@H](Cc1ccc(O)cc1)NCC2 | 23 | -10 | 3 | 4110 | -14 | 7 | -7
Nc1ccc(S(=O)(=O)N2CCCc3ccccc32)cc1 | 12 | nt | nt | 4216 | -22 | -8 | 4
O=C(CC1C(=O)NCCN1Cc1ccc(Cl)c(F)c1)NCC1CCOCC1 (stereo not drawn) | 0.1 | -1 | -9 | 5113 | -15 | 0 | 4
CCn1c(SCC(=O)O)nc2sc3c(c2c1=O)CCC3 | 1.3 | nt | nt | 3883 | -9 | 5 | 10
Cc1cc(NC(=O)CCOc2ccc(F)cc2)no1 | -1.6 | -11 | -15 | nt | -3 | -2 | 5
COc1ccccc1N1CCN(C(=O)NC23CC4CC(CC(C4)C2)C3)CC1 | 1.0 | -2 | 2 | 2408 | -10 | 1 | -2
Fc1cccc(NC(=S)NCc2ccccn2)c1 | 4.4 | 0 | -1 | 1990 | -19 | 2 | -4
O=C(NC(c1ccccc1)c1ccccc1)N1CCN(CCO)CC1 | 1.2 | -7 | 4 | 20420* | -16 | 2 | -24
COc1ccc(C=c2sc3nc(-c4ccccc4OC)nn3c2=O)c(OC)c1 | 6.9 | 3 | -4 | nt | nt | -4 | nt
CS(=O)(=O)N(CC(=O)Nc1ccccc1C(=O)N1CCOCC1)c1cccc(F)c1 | 2.8 | 14 | 5 | 6127 | -31 | 7 | -4
COC(=O)c1cc(C)cc(=O)o1 | 1.0 | -4 | 4 | 4397 | -21 | 2 | 10
COc1cccc(C(=O)NN=C(CC(C)C)c2ccccc2)c1 | 8.3 | 2 | 1 | nt | nt | -3 | nt
CCOC(=O)CCc1c(C)nc2c(c(C)nn2C(C)(C)C)c1C | 4.3 | 4 | 8 | 5560 | -27 | 16 | 1
Cn1nnnc1Sc1ccc(C(=O)O)cc1[N+](=O)[O-] | 5.8 | 16 | 6 | 4787 | -13 | 3 | -3
COc1cccc(-c2cc(C(F)(F)F)nc(-n3cc(C)cn3)n2)c1 | 22 | -6 | 11 | 4918 | -4 | 8 | 1
COC(=O)CNC(=O)COC(=O)c1ccc(OC)c([N+](=O)[O-])c1 | 2.1 | 5 | -3 | 9001 | -23 | 12 | 4
Cc1ccc2nc(NC(=O)C(NS(=O)(=O)c3cccc4nsnc34)C(C)C)sc2c1 (stereo not drawn) | 0.9 | 0 | -1 | 4038 | -19 | -12 | -2
COc1ccc(C(=O)Nc2nnc(S(=O)(=O)N(C)Cc3ccccc3)s2)cc1 | 6.3 | 1 | -6 | 6731 | -4 | -5 | 4
O=C(OCn1nnc2ccccc2c1=O)c1cccnc1 | 5.7 | 6 | -1 | 4446 | -28 | -5 | 5
Cc1ccc(CC2C(=O)N(c3cc(C)ccc3C)C(=O)C2C)cc1 (stereo not drawn) | 1.3 | 21 | 11 | 3548 | -26 | 12 | 1
Cc1ccc(Cn2c(C(C)Nc3nc(-c4ccc(F)cc4)cs3)nc3cc(C(F)(F)F)ccc32)cc1 (stereo not drawn) | 2.3 | 15 | 11 | 4341 | -5 | 0 | -7
C=CCN1C(=O)NC(=O)C(=Cc2cccn2C)C1=O | -1.3 | -13 | -2 | nt | nt | -5 | nt
Cc1ccc(S(=O)(=O)n2nc(OC(=O)C3CCCCC3)cc2N)cc1 | 1.7 | nt | nt | 3487 | 8 | 3 | -2
CCO[C@@H]1OC(C(=O)N2CCCCCCC2)=C[C@H](C2CCCCC2)[C@H]1CCCO | nt | nt | nt | 2994 | -13 | nt | 9
CC(CN1CCOCC1)OC(=O)c1ccc(C(C)(C)C)cc1 (stereo not drawn) | 2.2 | 16 | 6 | 4134 | -23 | 9 | 7
CCSc1nc(-c2ccccc2)c2cc(Cl)ccc2n1 | 2.4 | 3 | 6 | 2394 | -11 | 58 | -6
O=C(NN=C1C2CC3CC(C2)CC1C3)c1cccc(S(=O)(=O)N2CCOCC2)c1 | 1.0 | 12 | 8 | 2508 | -11 | 5 | -5
CCN(CC)c1nc(-c2ccccn2)nc(-c2ccccc2)c1C#N | 0.6 | 1 | 15 | 4495 | -51 | -6 | 10
CCCc1cc(C(=O)NC2CCCC2)no1 | 22 | nt | nt | 5827 | -58 | 18 | 2
COc1ccccc1N1CCN(C(=O)Cn2cnc3c2c(=O)n(C)c(=O)n3C)CC1 | 2.4 | 9 | 7 | 3128 | -13 | 0 | -1
COc1cccc(CNC(=O)C(=O)NCC2OCCCN2S(=O)(=O)c2cc(C)ccc2C)c1 (stereo not drawn) | 3.5 | 6 | 4 | 5975 | -9 | 2 | 5
COc1cccc(C2C=C(Nc3ccccc3)C(=O)N2c2ccccc2)c1 (stereo not drawn) | -2.6 | 4 | 5 | 2249 | -33 | 7 | -8
O=C(Nc1ccccc1)N1CC=C(c2ccc(F)cc2)CC1 | 0.7 | nt | nt | 2369 | -44 | -18 | -5
Cc1ccc(-c2nc3cc(N)ccc3o2)cc1 | 11 | -5 | 11 | 23399* | -10 | -6 | 2

Structures listed so far that have an aryl thioether with sulfur outside any ring:
SMILES | RN4220 kill | Mtb hypoxia rep | Mtb hypoxia rep growth | Bead autofluor | PrP UTR inh | Sa ugtP lethal | BJeLR lethal
CCn1c(SCC(=O)O)nc2sc3c(c2c1=O)CCC3 | 1.3 | nt | nt | 3883 | -9 | 5 | 10
Cn1nnnc1Sc1ccc(C(=O)O)cc1[N+](=O)[O-] | 5.8 | 16 | 6 | 4787 | -13 | 3 | -3
CCSc1nc(-c2ccccc2)c2cc(Cl)ccc2n1 | 2.4 | 3 | 6 | 2394 | -11 | 58 | -6

Additional structures
SMILES | RN4220 kill | Mtb hypoxia rep | Mtb hypoxia rep growth | Bead autofluor | PrP UTR inh | Sa ugtP lethal | BJeLR lethal
O=C(CC1(O)C(=O)N(Cc2cccc3ccccc23)c2ccccc21)c1cccnc1 (stereo not drawn) | 3.7 | 8 | 5 | 5597 | -12 | 11 | 2
CCOC(=O)Cc1csc(NC(=O)c2ccc(Br)o2)n1 | 5.7 | 8 | 14 | 4362 | -6 | -3 | 3
CCCCOc1ccc(-c2nnn(C(C)C(=O)OCC)n2)cc1 (stereo not drawn) | 1.5 | 3 | 1 | 4823 | -6 | 44 | 10
O=C(CN1C(=O)NC2(CCCCCC2)C1=O)N1CCN(S(=O)(=O)c2ccccc2)CC1 | -1.0 | 6 | 4 | 3497 | 0 | 6 | -3
O=C1CN=C(c2ccccc2)c2ccccc2N1 | 0.8 | 3 | 5 | 3533 | -10 | 12 | -2
CCCCCN(C(=O)CCC(=O)OCC(=O)c1c(C)cc(C)cc1C)c1c(N)n(CCCC)c(=O)[nH]c1=O | 2.2 | 5 | -3 | ? | -25 | -1 | -11
O=C(O)C1CCCN1C(=O)OCc1ccccc1 (stereo not drawn) | -2.5 | -6 | 8 | 6124 | -22 | -6 | -8
Cc1ccc(-c2nnc(SCC(=O)Nc3nccs3)n2N)cc1 | 4.0 | 1 | 5 | 14375 | -21 | 8 | -15
COc1cc(NC(=O)CN(C)S(=O)(=O)c2ccc3c(c2)CCC(=O)N3)cc(OC)c1 | 5.8 | -5 | 10 | 4202 | -3 | -19 | -1
COc1ccc(N2CCN(C(=O)c3cc4c(-c5ccc(Cl)cc5)nn(C)c4s3)CC2)cc1 | -2.7 | nt | nt | 4123 | 5 | 8 | 4
O=[N+]([O-])c1cccc2c1ccc1ncccc12 | 7.0 | 2 | 5 | 3715 | 9 | 21 | 2
Cc1ccc(S(=O)(=O)Nc2cccc(-c3ccc4nncn4n3)c2)cc1 | -1.7 | -1 | 4 | 6332 | -26 | -2 | 13
CCOC(=O)C1=C(C)NC(C)=C(C(=O)OCC)C1c1cc(N)ccc1OC(F)F | 0.3 | nt | nt | 4477 | -10 | 0 | -9
O=C(Cc1cccs1)NNC(=O)c1ccccc1Cl | 1.1 | 15 | 4 | nt | nt | 0 | nt
O=C(NCCCN1CCCCC1)c1ccc2c(=O)n(CCc3ccccc3)c(=O)[nH]c2c1 | 1.1 | 8 | 2 | 6619 | -14 | 8 | 7
Cc1ccc2oc(C(=O)N3CCN(Cc4nccn4C)CC3)c(C)c2c1 | -3.9 | 6 | 6 | 5512 | -27 | 16 | 2
COc1ccc(CNC(=O)C2CCC(CNS(=O)(=O)c3ccccc3)CC2)cc1 (stereo not drawn) | -4.0 | -3 | -1 | 3068 | -6 | 4 | 3
COc1cc(COCC(O)CN2CCOCC2)cc(OC)c1OC (stereo not drawn) | 2.2 | nt | nt | 2556 | -6 | -2 | -2
CC(C)C(=O)Nc1ccc(N2CCCC2)c(Cl)c1 | 2.0 | 6 | 9 | 4259 | -29 | 4 | 1
CC1(C)Cc2c(cnn2-c2ccccc2)C(NC(=O)CCc2ccc(=O)[nH]n2)C1 (stereo not drawn) | -0.7 | 10 | 5 | 6430 | -12 | 5 | 6
O=C(CC(NS(=O)(=O)c1ccc(Cl)cc1)c1ccco1)NCc1ccco1 (stereo not drawn) | 5.8 | nt | nt | 4031 | -10 | 2 | -6
Cc1ccccc1N(CC(=O)NCCSCc1ccccc1)S(C)(=O)=O | -0.6 | 8 | -4 | 4254 | -12 | -4 | 1
CCNC(=O)CN(c1ccccc1OC)S(=O)(=O)c1cccs1 | 7.0 | 7 | 4 | 10445 | -15 | 12 | -7
O=c1[nH]c(=O)n(-c2ccccc2)c(O)c1/C=C/C=Nc1ccccc1 | nt | nt | nt | 2239 | 1 | nt | -1
CC(=O)Nc1cc(-c2nn(C)c(=O)c3ccccc23)ccc1N1CCCCC1 | 6.2 | 6 | 4 | 16582* | -17 | 8 | 2
Cc1onc(-c2ccccc2Cl)c1C(=O)N1CCN(c2ccccc2)CC1 | -3.0 | -7 | -8 | 22146* | 2 | 1 | -10
Cc1ccc(OCCCN2CCOCC2)c([N+](=O)[O-])c1 | nt | nt | nt | 2463 | -69 | nt | 12
COc1ccc(CN2CCN(Cc3csc(C(C)=O)c3)CC2CCO)c(C)c1C (stereo not drawn) | 9.7 | -5 | -14 | 2771 | -8 | 8 | 10
CCN(CC)c1nc(Oc2ccc(C(=O)OC)cc2)nc(N2CCOCC2)n1 | 2.3 | 2 | -2 | 4343 | 82* | 15 | 0
O=Cc1ccc(-c2cc(Cl)ccc2Cl)[nH]1 | 4.0 | 3 | 5 | 5202 | -15 | -1 | -6
CSCc1ccc(C(=O)NC2CC(C)(C)Cc3c2cnn3-c2ccc(F)cc2)o1 (stereo not drawn) | 1.1 | 12 | 1 | 5458 | -18 | 9 | 8
Cc1cc(-n2cnnn2)cc(C)c1S(=O)(=O)NCCOc1ccccc1 | 4.9 | -7 | 0 | 5780 | -14 | 0 | 4
COc1cc2c(c(OC)c1OC)-c1ccc(C(=O)O)cc1[C@@H](NC(C)=O)CC2 | nt | nt | nt | 3611 | -8 | nt | -6
CC(NC(=O)COC(=O)/C=C/c1ccco1)c1ccccc1 (stereo not drawn) | 1.3 | 6 | 3 | 4943 | -10 | 6 | 1
COC(=O)c1ccc(NC(=O)CN2CCN(c3ccccn3)CC2)cc1 | 16 | -2 | 2 | 5894 | -8 | 6 | 6
Cc1csc(NC(=O)CCCNC(=O)c2ccc(Cl)cc2)n1 | 6.4 | 6 | 3 | nt | -8 | 3 | nt
CCCCC/C=N\NC(=O)Cc1ccc([N+](=O)[O-])cc1 | nt | nt | nt | 2615 | -22 | nt | -10
CCc1cc(=O)oc2cc(OCc3nn[nH]n3)ccc12 | 1.3 | nt | nt | 2893 | -9 | -4 | 4
